# Compound activity from PubChem.
# YopH inh = blocks Yersinia enterocolitica YopH tyrosine phosphatase. actives 0.16% (n = 140,000). fluorescence Ex485/Em525. inhibition, %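 (about 10 µM by stock and volumes)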. AID 898;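 active = inhibition of 50% or more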;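 also: controls were vehicle for no effect and minimum signal wells for full effect; inactives centre near -20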
# Arbovirus anti = antivirals against arbovirus infection. actives 0.37% (n = 200,000). inhibition, % at 10 µM. arbovirus infection cell-based antiviral screen. AID 1251;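 active = inhibition from about 30%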;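 also: bluetongue infection of BSR cells; cell survival read as ATP light after 72 h; 0% = infected wells without compound and 100% = uninfected wells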
# Mtb bLac sens = beta-lactam sensitization of Mtb H37Rv; M. tuberculosis H37Rv growth with meropenem, percent inhibition; hits of this screen are not shown here; inhibition, % at 25 µM; actives 0.27% (n = 330,000); AID 434955;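 active = about 74% or more and at least 40 points above the plate without the antibiotic, then above 30% in a dose series; inconclusive = first-round hits that could not be retested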;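 also: growth measured after seven days incubation then overnight dye step; 0% = bacteria only wells and 100% = bacteria with antibiotic; twin plates without the antibiotic show which effects depend on it; some results filed as inactive read as strong as hits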
# RecA intein inh = Mtb RecA intein splicing inhibition. cell-free RecA intein splicing, fluorescence. inhibition, %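 (about 9 µM by stock and volumes)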. actives 0.75% (n = 290,000). P9WHJ3; in the data active = inhibition above about 30%; inconclusive = no clear call, values can overlap the other calls;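 also: 0% = vehicle wells and 100% = reference inhibitor control wells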
# Target sequence (P9WHJ3 whole entry, looked up): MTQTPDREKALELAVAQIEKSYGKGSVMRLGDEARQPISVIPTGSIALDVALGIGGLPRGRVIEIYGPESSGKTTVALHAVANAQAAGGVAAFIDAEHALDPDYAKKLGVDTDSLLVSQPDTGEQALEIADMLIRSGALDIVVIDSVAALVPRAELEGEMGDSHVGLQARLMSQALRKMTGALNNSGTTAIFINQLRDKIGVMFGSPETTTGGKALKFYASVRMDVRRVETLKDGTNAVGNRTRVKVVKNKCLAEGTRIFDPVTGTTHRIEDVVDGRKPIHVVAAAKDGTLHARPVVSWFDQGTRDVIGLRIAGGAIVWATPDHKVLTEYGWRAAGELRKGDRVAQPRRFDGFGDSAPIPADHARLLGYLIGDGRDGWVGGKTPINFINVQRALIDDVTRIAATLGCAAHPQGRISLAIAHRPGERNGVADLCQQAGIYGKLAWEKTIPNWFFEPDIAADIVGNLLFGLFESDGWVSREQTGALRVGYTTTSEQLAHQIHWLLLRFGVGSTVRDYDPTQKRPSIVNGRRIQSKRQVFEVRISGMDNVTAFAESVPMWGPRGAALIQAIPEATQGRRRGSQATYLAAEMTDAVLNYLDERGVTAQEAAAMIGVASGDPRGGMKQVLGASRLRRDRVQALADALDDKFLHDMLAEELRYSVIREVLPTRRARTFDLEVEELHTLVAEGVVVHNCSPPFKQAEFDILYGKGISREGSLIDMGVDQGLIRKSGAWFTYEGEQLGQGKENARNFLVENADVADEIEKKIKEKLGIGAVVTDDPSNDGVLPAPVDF
# Mtb H37Rv = M. tuberculosis H37Rv growth inhibitors, H37Rv strain (AID 1626). actives 0.95% (n = 220,000). M. tuberculosis H37Rv growth inhibition; higher % means a stronger effect. one-dose inhibition, % at 10 µM; IC50 in µM for titrated hits;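 active = confirmed in a dose series; inconclusive = inhibition above 80% but not taken into the dose series; inactive = below 80% or under 30% at every dose of the series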;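 also: bacteria incubated seven days before Alamar blue readout; 0% = bacteria only wells and 100% = bacteria with antibiotic wells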
# The depositor's hits bear a star; u = inconclusive; x = no result given. A portion of the library. The share of hits here may be higher or lower than overall.
SMILES,YopH inh,Arbovirus anti,Mtb bLac sens,RecA intein inh,Mtb H37Rv
CCOC(=O)CSc1cc(CS(C)(=O)=O)nc(-c2ccccn2)n1,x,9,3,-0.7,1%
O=C(Cc1ccc(Br)cc1)Nc1ccccc1N1CCCC1,x,x,u,8.0,x
Cc1cccc(-n2ncc3c2CCCC3NC(=O)Cn2cccn2)c1C (stereo not drawn),x,x,12,0.8,x
CCOC(=O)c1oc2ccc(OC)cc2c1NC(=O)CN1CCN(C)CC1,-17,-2,-4,-0.1,-5%
O=C(CN(C(=O)c1csnn1)c1ccccc1)NCc1ccc2c(c1)OCO2,x,x,1,3.7,x
O=C(NC1CCCCCCC1)c1ccc(S(=O)(=O)N2CCCC2)cc1,-2,8,0,5.2,3%
COc1cc2ccccc2cc1C(=O)NCC(c1cccs1)N(C)C (stereo not drawn),x,3,-6,0.4,7%
CCN(CC)CCNCc1ccc(Br)cc1OCC(=O)NCc1ccccc1,x,-4,0,-1.3,-2%
CN1CCN(CC(O)COc2ccc(OCC(O)CN3CCN(C)CC3)cc2)CC1 (stereo not drawn),-2,8,-15,1.7,-6%
CCCc1cc(=O)n2[nH]c(-c3ccco3)nc2n1,-47,10,6,-1.1,-1%
CC1CCN(S(=O)(=O)c2cccc(C(=O)NCc3ccco3)c2)CC1,-15,4,0,2.8,-4%
CCn1c(SCC(=O)Nc2nc3ccccc3s2)nnc1-c1ccc(Br)cc1,-23,-4,10,-0.1,-8%
O=C(NNS(=O)(=O)c1ccc([N+](=O)[O-])cc1)c1cnn(-c2ccccc2)c1-n1cccc1,-24,7,u,-0.5,-7%
CCOC(=O)CCc1c(C)n(CC)c2cc(-c3ccccc3OC)nn2c1=O,-42,-9,-9,0.0,-2%
COc1ccc(NC(=O)CCNS(=O)(=O)c2ccc3c(c2)c(=O)n(C)c(=O)n3C)c(OC)c1,-28,5,u,0.7,1%
COc1ccccc1NC(=O)Nc1ccc2c(c1)CCC2,x,x,-6,2.2,x
CCOc1cc(/C=C/c2cccc[n+]2C)ccc1OCC(=O)Nc1ccc(C)cc1,x,x,-4,5.0,x
CS(=O)(=O)N(CC(=O)NCCSCc1c(F)cccc1Cl)c1ccc2c(c1)OCO2,3,-5,-12,1.4,-2%
CCOc1ccc2nc(Cl)c(C3CC(c4ccco4)=NN3S(=O)(=O)c3ccccc3)cc2c1 (stereo not drawn),-16,0,-2,-0.2,0%
Cc1cccc(C)c1OCc1cc(C(=O)NCC2CCCCC2)no1,x,x,3,-2.0,x
COc1ccc(CNCCCSc2ncccn2)cc1OC,x,x,-6,0.2,x
Cc1cc(NC(=O)CSc2nnc(-c3cccnc3)n2C2CCCCC2C)no1 (stereo not drawn),-7,7,-9,5.0,-4%
CCCCNc1c(-c2ccc(OC)c(SC3CCCCC3)c2)nc2cc(C)ccn12,x,x,99,9.6,x
COC(CNC(=O)C1CCCN(S(=O)(=O)c2c(C)noc2/C=C/c2cccs2)C1)OC (stereo not drawn),x,-4,3,-2.9,2%
O=C(CCCC(=O)c1ccccc1)Nc1ccc(F)cc1,x,x,5,2.2,x

# 3 entries from above, with tabs.
canonical_smiles	YopH inh	Arbovirus anti	Mtb bLac sens	RecA intein inh	Mtb H37Rv
Cc1cccc(C)c1OCc1cc(C(=O)NCC2CCCCC2)no1	x	x	3	-2.0	x
O=C(CCCC(=O)c1ccccc1)Nc1ccc(F)cc1	x	x	5	2.2	x
O=C(Cc1ccc(Br)cc1)Nc1ccccc1N1CCCC1	x	x	u	8.0	x

# Later entries:
SMILES,YopH inh,Arbovirus anti,Mtb bLac sens,RecA intein inh,Mtb H37Rv
COc1ccc(C(=O)NNC(=S)NC(=O)c2cccc([N+](=O)[O-])c2)cc1,x,x,91,-0.3,x
COc1ccc(-c2cc(C(F)(F)F)nc(S(=O)(=O)CCC(=O)N3CCOCC3)n2)cc1,-14,-31,47,5.6,-5%
CCN1C(=NCCc2c[nH]c3ccccc23)N[C@@H](c2ccccc2)[C@H](C(=O)OC)[C@H]1C,x,x,-7,2.2,x
O=C(CN(Cc1ccc(F)cc1)S(=O)(=O)c1ccc(S(=O)(=O)N2CCOCC2)cc1)Nc1ccccc1,2,-13,2,-0.4,0%
CN(C)CCCN1CC(=O)N2[C@@H](Cc3c([nH]c4ccccc34)C2(C)C)C1=O,x,x,-6,0.1,x
CCc1ccc(-c2csc3nc[nH]c(=O)c23)cc1,x,x,-7,2.8,x
COc1cc(C(=O)NCCCN2CCCC2=O)cc(OC)c1OC,-14,1,-8,-4.3,3%
[S-]c1nnc(-c2ccc(Br)cc2)n1-c1ccccc1.[Zn+2],x,x,2,8.4,x
COc1ccc(-c2nc3cc(C)ccn3c2NC(=O)c2ccccc2OC)cc1,x,x,0,-0.5,x
Cn1c(=O)cc(OCCCC(=O)NCCCN2CCN(Cc3ccccc3)CC2)c2ccccc21,-8,-8,12,0.4,-6%
NC(=O)c1nsc(C(=O)N(Cc2cccnc2)C(C(=O)NC2CCCC2)c2ccc(F)cc2)c1N (stereo not drawn),x,x,-6,-3.4,x
Cc1c(-c2cccs2)[n+](=O)c2c(n1[O-])CCCCC2,-37,2,-3,x,-4%
O=C(c1cccc2nc3ccccc3nc12)N1CCOCC1,x,x,-6,2.8,-1%
CCOc1ccccc1NC(=O)N1CCC(n2nnc3cc(C)ccc32)CC1,-25,6,-2,2.1,-2%
C=CCNC(=O)c1sccc1Oc1ccc(F)cc1[N+](=O)[O-],x,5,3,3.0,7%
CCc1ccc(N2C(=O)CN(Cc3cc(OC)c(OC)c(OC)c3)C2=S)cc1,-22,4,-5,2.2,4%
CCCCNC(=S)NNc1c(Cl)cc(Cl)cc1Cl,x,-1,3,-11,6%
Oc1ccc(-c2nccc(-c3ccc(Cl)cc3)n2)cc1,x,16,22,5.3,u
Cc1ccc(C(=O)N2CCN(c3ccc([N+](=O)[O-])c(N4CCOCC4)c3)CC2)cc1,-25,1,6,-0.1,1%
S=c1[nH]nc(-c2cccs2)n1C1CCCCC1,x,x,10,-0.9,-2%
CN1CCc2c1nc1ccccc1c2NC(=O)CN1CCCC1,x,x,1,-1.2,x
COc1ccc2nc(NCCO)[nH]c2c1,-29,10,-2,-5.4,-7%
CN(CCC1CCOCC1)C(=O)CC1C(=O)NCCN1Cc1ccccc1F (stereo not drawn),x,x,-5,-3.4,x
CCOC(=O)c1ccccc1NC(=O)COC(=O)C1CCN(S(=O)(=O)c2ccccc2C(=O)OC)CC1,x,x,-6,5.9,x
CSCC[C@H](NC(=O)OC(C)(C)C)c1nnc(SCc2cccc(F)c2)o1,-45,-2,-6,4.9,0%

# Remaining list, next part:
SMILES,YopH inh,Arbovirus anti,Mtb bLac sens,RecA intein inh,Mtb H37Rv
CC1CCN(c2ccc([N+](=O)[O-])cn2)CC1,-28,-7,7,0.0,4%
Cn1c(SCC(=O)Nc2cc(Cl)cc(Cl)c2)nnc1-c1ccc2nonc2c1,x,x,1,1.0,9%
Cc1ccc(NC(=O)C2CCCC2)cc1Cl,x,x,93,3.4,x
CCCCC1N2CC3([N+](=O)[O-])CN1CC([N+](=O)[O-])(C2)C3(C)C (stereo not drawn),-27,-4,5,2.7,-6%
CCC(C)N(C(=O)COC(=O)CSc1ccc([N+](=O)[O-])cc1)C1CCS(=O)(=O)C1 (stereo not drawn),x,x,2,-0.1,x
COC(=O)c1cc(C(=O)OCC(=O)NCc2ccc3c(c2)OCO3)cc([N+](=O)[O-])c1,-19,-3,-3,-0.2,-7%
CCN(CC)S(=O)(=O)c1cccc(C(=O)Nc2cccc(C)c2)c1,-1,-17,-1,2.1,-1%
Cc1cc(C)cc(NC(=O)CCN2C(=O)c3ccccc3C2=O)c1,x,x,-5,-2.7,x
O=C(Oc1ccccc1F)c1ccc2c(=O)n3c(nc2c1)CCC3,x,x,82,12,x
O=C(Oc1cccc2cccnc12)c1ccco1,-2,-1,100,x,u
CC(=O)C1=C(C)NC(=O)NC1c1ccccc1OCC(=O)NCCc1ccccc1 (stereo not drawn),-34,1,-6,-0.1,0%
Cc1ccccc1NC(=S)NCc1ccc2c(c1)cc(C)n2C,-20,2,-4,-1.5,19%
O=C(Cc1sc(-c2ccccc2)nc1-c1ccccc1)Nc1ccc(Cl)cc1,-32,6,28,-1.4,-17%
Cc1ccc(NC(=O)c2ccc(OC(F)(F)F)cc2)cc1S(=O)(=O)N(C)C,-18,1,5,-1.4,6%
Cc1cc(Cc2c(O)[nH]c(=S)[nH]c2=O)ccc1OC(C)C,x,x,-5,-0.5,x
CC(C)(C)c1ccc(C(=O)Nc2ccc3c(c2)C(=O)NC3=O)cc1,x,x,2,-3.8,x
Cc1nc2cc(C(F)(F)F)ccc2n1C1CCN(Cc2nnnn2Cc2ccc3c(c2)OCO3)CC1,-40,-12,89,-0.6,0%
CCOC(=O)N1CCN(C(=O)COc2ccc3ccccc3c2Br)CC1,x,x,13,0.4,x
O=C(Cn1c2c(c(-c3ccccc3Cl)cc1=O)CCC2)NCCCN1CCOCC1,x,x,-6,-2.8,2%
O=C(Cn1c(-c2ccccc2Cl)nc2ccccc21)Nc1cccc(Cl)c1,-38,-28,-4,4.4,7%
CCOc1ccc(NC(=O)CCCn2nc(C)c3c(C)n(-c4ccccc4)nc3c2=O)cc1,x,x,-5,-4.0,x
O=C(Nc1ccccc1-c1nnn(CC(=O)N2CCCc3ccccc32)n1)c1ccco1,-30,-2,0,8.7,6%
CCc1ccc(S(=O)(=O)N/N=C(/C)c2ccncc2)cc1,x,x,-11,2.2,x
Cc1[nH]n(-c2ccccc2)c(=O)c1N=Nc1c(Cl)cccc1Cl,x,x,-7,7.5,x
CCCCn1c(N)c(N(CCC(C)C)C(=O)C2CSC3(C)CCC(=O)N23)c(=O)[nH]c1=O (stereo not drawn),x,x,2,-2.0,x

# 4 entries from above, ordered by heavy-atom count, smallest number first:
SMILES,YopH inh,Arbovirus anti,Mtb bLac sens,RecA intein inh,Mtb H37Rv
CCc1ccc(S(=O)(=O)N/N=C(/C)c2ccncc2)cc1,x,x,-11,2.2,x
Cc1ccccc1NC(=S)NCc1ccc2c(c1)cc(C)n2C,-20,2,-4,-1.5,19%
O=C(Cc1sc(-c2ccccc2)nc1-c1ccccc1)Nc1ccc(Cl)cc1,-32,6,28,-1.4,-17%
COC(=O)c1cc(C(=O)OCC(=O)NCc2ccc3c(c2)OCO3)cc([N+](=O)[O-])c1,-19,-3,-3,-0.2,-7%

# New compounds follow:
SMILES,YopH inh,Arbovirus anti,Mtb bLac sens,RecA intein inh,Mtb H37Rv
COc1ccc(-c2cc(N3C(=O)Nc4ccccc4N3O)n[nH]2)c(OC)c1,x,4,2,1.9,5%
COc1ccc(-n2c(SCC(=O)Nc3cccc(S(N)(=O)=O)c3)nc3ccccc3c2=O)cc1OC,x,x,2,-0.4,-3%
Cc1ccc(S(=O)(=O)NC(N)=NCCc2ccc(Cl)cc2)cc1,-7,9,1,3.1,-7%
Cc1ccc(C(=O)N2NC(c3ccccc3F)C3C(=O)N(c4cccc(C)c4)C(=O)C32)cc1 (stereo not drawn),-15,-5,0,2.1,x
Cc1ccn(S(=O)(=O)c2ccc(C(C)(C)C)cc2)n1,-26,-3,-8,1.1,-8%
COc1ccc(Cl)cc1NC(=O)CSc1nnc(-c2ccncc2)n1CC1CCCO1 (stereo not drawn),1,3,-16,x,-13%
COc1ccccc1/C=C1/SC(=S)N(C(C)C(=O)NC2C=CS(=O)(=O)C2)C1=O (stereo not drawn),x,x,1,-7.2,x
O=C(NC12CC3CC(CC(C3)C1)C2)c1cncc(O)c1,-16,9,-1,0.4,-4%
COCCn1nnnc1C(c1cc2c(C)cc(C)cc2[nH]c1=O)N1CCCCCC1 (stereo not drawn),-11,-2,0,-4.4,10%
Cc1ccc(NS(=O)(=O)c2cccc(C(=O)O)c2)cc1S(=O)(=O)N1CCCCC1,-37,5,5,-2.3,-8%
Cc1cccc(NC(=S)NC(=O)c2ccc(Br)o2)c1,x,2,-3,x,u
CCC(=O)Nc1ccc(Cl)c(NC(=S)NC(=O)c2ccco2)c1,-24,-4,0,-3.3,9%
O=c1c2ccc(Cl)cc2nc2n1CC/C2=C\c1cccc(O)c1,x,x,38,-0.3,x
COc1ccc(S(=O)(=O)N2CCC3(CC2)OCCN3S(=O)(=O)c2ccccc2)cc1OC,x,x,-8,0.8,x
CC(C)CNC(=O)C(=O)NCC(c1ccc2c(c1)OCO2)N1CCOCC1 (stereo not drawn),x,x,-4,2.7,x
CCOc1ccc(OCC)c(-c2c(=O)n(OCc3ccccc3Br)c3ccccc3[n+]2[O-])c1,-39,6,-3,6.9,2%
COc1cc(CC(=O)Nc2nc(C)cs2)cc(OC)c1OC,x,-2,-6,-1.9,-1%
O=C(Nc1nccs1)c1ccc(COc2ccccc2Br)o1,5,-36,12,3.7,3%
